RanGTP-Impb inh – disruptors of Ran-importin-beta complex formation – biochemical, FRET, CFP-Ran, YFP-importin-beta, homogeneous, primary screen; cell-free CFP-Ran/YFP-importin-beta FRET ratio; inhibition, % (no concentration beside the values); 300,000 compounds, 1.1% hits; AID 2216;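 active = most replicates above 15%; inconclusive = exactly half above 15%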;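 also: 0% = DMSO wells and 100% = Ran loaded with GDP instead of GTP; wells of about 40 µL received 100 nL stock; the first replicate is given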
ALR H2O2 inh – human ALR oxidase inhibition via reduced H2O2. purified ALR, DTT oxidation, H2O2 HRP-luminol luminescence. inhibition, % (test concentration not listed). 290,000 compounds, 3.8% hits;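 active = mean and each replicate at 75% or more; inconclusive = only one of the two met; inactive = neither met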;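 also: stock transfer was 7.5 nL into about 7.5 µL; 0% = neutral wells and 100% = wells with inactivated enzyme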
B2AR ag – activates human beta-2 adrenergic receptor causing internalization; response, % (test concentration not listed); P07550; 340,000 compounds, 0.43% hits; Am2.2-beta2AR cells, FAP receptor internalization, flow cytometry; reference of the scale not given here;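 active = response above a set limit, near 3 SD of response in nonfluorescent compounds, cut at about 42% in these data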;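 also: stock transfer was 100 nL into about 11 µL; a reference agonist was the positive control; negative values mostly stem from fluorescent compounds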
HNF4A DNA FP – change in binding of human HNF4 alpha to DNA. activity change, % at 10 µM. P41235. 360,000 compounds, 0.3% hits. HNF4a-FITC DNA binding, fluorescence polarization, 1 h; in the data active = activity change above about 30%, passing the limit was not always enough;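 also: controls were the assay level and a saturating level of protein; the project sought stronger binding though the title names inhibitors; some compounds called inactive have numbers as strong as hits; positive values seem to mean higher polarization but the record does not say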
LANA-H2A inh – blocks KSHV LANA binding to histone H2A/H2B; Q9QR71; inhibition, % (test concentration not listed); AID 2629; cell-free LANA-H2A/H2B peptide, fluorescence polarization; 320,000 compounds, 0.6% hits; in the data active = inhibition mostly above about 10%, no sharp cut-off; inactive = mostly below about 6.7%;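 also: stock transfer was 7.5 nL into about 10 µL; 0% = median of vehicle wells and 100% = median of positive control wells; one replicate is shown; the record names a cut of 25% in any replicate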
Target sequence (Q9QR71 whole entry, looked up): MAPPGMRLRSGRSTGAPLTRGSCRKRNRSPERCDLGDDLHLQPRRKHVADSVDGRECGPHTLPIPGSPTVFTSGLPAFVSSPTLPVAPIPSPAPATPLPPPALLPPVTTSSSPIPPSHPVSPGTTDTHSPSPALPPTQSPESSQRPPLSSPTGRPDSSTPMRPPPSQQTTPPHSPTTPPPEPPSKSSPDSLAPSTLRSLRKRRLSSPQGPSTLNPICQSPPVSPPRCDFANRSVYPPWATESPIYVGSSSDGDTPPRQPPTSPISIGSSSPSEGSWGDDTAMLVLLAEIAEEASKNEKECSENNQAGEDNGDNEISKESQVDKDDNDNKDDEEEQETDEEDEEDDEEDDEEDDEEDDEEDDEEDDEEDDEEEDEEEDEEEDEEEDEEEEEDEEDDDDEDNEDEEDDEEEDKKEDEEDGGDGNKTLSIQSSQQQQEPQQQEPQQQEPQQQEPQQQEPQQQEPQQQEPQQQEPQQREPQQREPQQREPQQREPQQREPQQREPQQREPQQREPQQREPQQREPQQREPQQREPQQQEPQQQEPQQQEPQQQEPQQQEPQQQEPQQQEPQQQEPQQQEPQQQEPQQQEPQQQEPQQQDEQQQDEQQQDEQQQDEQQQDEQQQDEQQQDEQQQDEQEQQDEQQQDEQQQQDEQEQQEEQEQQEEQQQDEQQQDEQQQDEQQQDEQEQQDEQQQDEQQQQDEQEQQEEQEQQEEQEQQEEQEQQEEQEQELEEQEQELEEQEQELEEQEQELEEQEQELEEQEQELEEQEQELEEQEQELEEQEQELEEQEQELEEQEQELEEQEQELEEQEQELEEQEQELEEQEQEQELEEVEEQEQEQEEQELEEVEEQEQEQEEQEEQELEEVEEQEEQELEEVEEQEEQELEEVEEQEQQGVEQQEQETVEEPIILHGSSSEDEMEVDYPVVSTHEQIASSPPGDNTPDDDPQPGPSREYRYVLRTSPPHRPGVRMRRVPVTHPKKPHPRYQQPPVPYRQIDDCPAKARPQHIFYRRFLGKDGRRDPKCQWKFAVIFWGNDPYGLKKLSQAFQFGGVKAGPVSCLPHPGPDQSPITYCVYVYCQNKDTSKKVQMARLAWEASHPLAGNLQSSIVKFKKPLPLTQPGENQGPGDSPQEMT
Vif TR-FRET – inhibitors of Vif binding to APOBEC3G peptide, primary screen, biochemical, TR-FRET, GST-Vif 1-94, biotin-A3G peptide, dose response retest (AID 1117319) | TR-FRET GST-Vif / biotin-A3G peptide binding; higher % means a stronger effect; test concentration not given here; strong numbers were not always called active | one-dose inhibition, %; IC50 in µM for titrated hits | 260,000 compounds, 0.57% hits;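 active = above the screen mean plus three standard deviations and confirmed in dose response; inconclusive = results disagree or hit not tested in dose response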;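 also: Vif residues 1-94 fused to GST binding biotinylated APOBEC3G peptide 110-148; 0% = full assay without inhibitor and 100% = GST in place of GST-Vif; retest series ran down from 100 µM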
Calb FLC – C. albicans growth modulation with fluconazole; C. albicans CaCi-2 (fluconazole-resistant clinical isolate) + fluconazole, Alamar Blue growth, 48 h; 300,000 compounds, 0.57% hits; AID 1979; growth inhibition, % (test concentration not listed);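 active = most replicates above 75%; inconclusive = exactly half above 75%; inactive = most below 75%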;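 also: all wells also contain fluconazole at 8 µg/ml as a sub-toxic cotreatment; 0% = median of DMSO wells and 100% = median of geldanamycin control wells; wells of about 8 µL received 7.5 nL stock; the first replicate is given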
Starred values were filed as active, the others as inactive; ? = inconclusive; . = not tested or not shown; & = joins results of further samples.

SMILES	RanGTP-Impb inh	ALR H2O2 inh	B2AR ag	HNF4A DNA FP	LANA-H2A inh	Vif TR-FRET	Calb FLC
OCC1(CO)COC2(CCCC2)N1	?	-1	12	0.8	6.6	7%&16%	-6
CCN1C(=O)C2(C(C(=O)c3ccc(C)o3)=C(O)C(=O)N2CCCN(C)C)c2ccccc21 (centres undefined)	2.0	-4	-2	0.0	-6.3	-1%	-9
CCCCn1c(N)c(N(CCOC)C(=O)c2oc3ccc(OC)cc3c2C)c(=O)[nH]c1=O	4.8	-6	-10	1.1	3.4	.	11
Cn1nc(C(=O)NC(C)(C)C)c2ccccc21	-0.2	-3	-23	2.5	-3.0	-4%	12
CC1(C)NC(=O)N(CCC(=O)Nc2cc(C(F)(F)F)ccc2Cl)C1=O	.	-5	0	0.3	-3.9	.	.
CN(CCOc1ccccc1)C(=O)c1ccc(N2CCCC2)c([N+](=O)[O-])c1	-1.5	-4	-11	1.1	-1.9	.	-4
Cc1ccc2c(c1)nnn2C1CCN(S(=O)(=O)c2ccc(C(=O)N3CC(C)CC(C)C3)cc2)CC1 (centres undefined)	7.7	-4	-18	3.4	1.9	4%	-3
CCCNc1nc2c(c(=O)[nH]c(=O)n2C)n1CCC(C)C	-0.1	3	-1	-6.0	2.5	0%	2
COc1ccc(CC(=O)Nc2nc(-c3cc(OC)ccc3OC)cs2)cc1	1.1	-4	15	2.3	-4.4	-8%	5
CC(=O)c1cccc(N(C(=O)c2cnccn2)C(C(=O)NCc2ccccc2)c2ccco2)c1 (centres undefined)	?	-7	6	-0.4	4.1	20%	-5
CCC(C)NS(=O)(=O)c1ccc(OCC(=O)NCc2ccc(OC)cc2)cc1 (centres undefined)	0.9	.	5	-2.6	4.6	-4%	6
CCN(CC)C(=O)[C@H]1C[C@H](CC(=O)NC/C=C(\C)CCC=C(C)C)C(=O)N2CCc3c([nH]c4cc(CCC(=O)N(C)C)ccc34)[C@]12C	.	.	-10	3.8	.	-3%	.
Cn1ncc2c(Nc3cccc(Cl)c3)nc(Nc3cccc(Cl)c3)nc21	-0.7	10	7	2.4	2.5	-14%	-7
COc1cccc(NC(=O)CCC2CCN(C(=O)Cc3cccc(F)c3)CC2)c1	0.3	-4	7	5.5	0.0	.	3
COC(=O)/C(=C/c1ccc2c(c1)c1ccccc1n2C)NC(=O)c1ccccc1	7.4	0	-11	0.7	2.4	.	1
COc1ccc(NC(=O)CSc2nnc(-c3ccncc3)n2C)cc1	1.3	-3	5	7.5	-0.9	?	7
COc1cccc(CNC(=O)CN2C(=O)CSc3ccc(S(=O)(=O)N4CCOCC4)cc32)c1	1.5	.	10	2.1	1.8	.	-6
CC(=O)Nc1ccc(NC(=O)c2ccc(NS(=O)(=O)c3cccc4cccnc34)cc2)cc1	0.0	-2	-1	1.3	0.5	-8%	-6
O=C1c2cccc3c(Nc4ccccc4Cl)c([N+](=O)[O-])cc(c23)C(=O)N1CCO	-3.2	6	17	1.5	-5.2	29%	0
O=C(Nc1ccc(F)c(Cl)c1)Nc1csc2ccccc12	-3.3	-3	12	4.1	1.8	.	-6
CSc1ccccc1NC(=O)CN1CCN(c2ccccn2)CC1	?	-15	0	6.7	0.3	-4%	-8
COc1ccc2nc(C(F)(F)Cl)c(C#N)c(N)c2c1	3.0	-7	5	-1.7	-1.2	0%	-13
CC(C)Cn1c(N)c(C(=O)COC(=O)c2ccc(O)cc2O)c(=O)n(C)c1=O	2.6	-8	8	-3.6	-1.4	-3%	-4
Nc1ccc(-c2cc3ccccc3oc2=O)cc1	2.1	40	-3	0.9	-0.6	.	-36
C/C(=C/C(=O)N1CCN(C)CC1)C(=O)O	-3.6	.	.	-3.7	-0.8	.	?
SMILES	RanGTP-Impb inh	ALR H2O2 inh	B2AR ag	HNF4A DNA FP	LANA-H2A inh	Vif TR-FRET	Calb FLC
COCCN(Cc1cn(C)nc1-c1ccc(Oc2ccccc2)cc1)C(C)C	?	-5	7	-0.3	2.6	1%	3
O=c1c(/C=N/O)c(Nc2ccccc2)nc2ccccn12	2.0	4	-24	1.6	4.8	4%	7
COc1ccc(NS(=O)(=O)c2ccc(C(=O)N3CCCCCC3)cc2)cc1	.	3	2	0.2	4.4	10%	.
Cc1cc(C)nc(SC(C)C(=O)O)n1 (centres undefined)	2.4	3	12	0.9	2.8	5%	17
CNC(=O)NC(=O)CSc1nc2cc(C(=O)OC)ccc2c(=O)n1-c1ccccc1	-2.4	-3	5	-0.5	9.9	-3%	-40
Cc1[nH]c2ccccc2c1C(=O)CSC(=S)N1CCN(C)CC1	-2.5	-10	-16	1.0	-4.1	8%	-7
COc1ccc(CCNC(=O)c2ccc3c(c2)SC2=NS(=O)(=O)CCN23)cc1	7.5	-4	-6	2.5	-0.5	-9%	7
COc1cccc(NC(=O)CN(C)C(=O)/C=C/c2ccc3ccccc3n2)c1	6.8	19	6	4.9	-6.8	8%	3
CCOC(=O)C1CCCN(c2c(NCCN3CCCCC3C)c(=O)c2=O)C1 (centres undefined)	7.2	-18	9	-2.6	2.0	16%	2
Cc1cc(SCC(=O)c2ccccc2)nc(C)n1	0.3	-6	12	4.5	4.1	15%	-2
FC(F)(F)c1cccc(-c2nn[nH]n2)c1	-3.7	0	4	-1.4	1.4	5%	1
CCOc1ccc(CC(=O)N2CCN=C2SC)cc1	2.0	-4	-1	1.8	-2.1	-12%	-11
Cc1c(O)nc(SC2CC(=O)N(c3ccccc3)C2=O)[nH]c1=O (centres undefined)	-0.3	-4	5	0.0	1.8	-4%	?
CC(=O)Nc1nonc1-c1ccccc1	1.6	2	3	0.5	4.4	19%	-8
O=C(Nc1cc(Cl)cc(Cl)c1)c1cnn2cccnc12	5.6	.	0	9.9	3.7	?	14
Cc1cc(C)nc(NS(=O)(=O)c2ccc(NC(=O)c3ccc4c(c3)OCO4)cc2)n1	0.1	12	5	3.1	-0.6	27%	-12
CCC(C(=O)OCC(=O)N1CCN(S(=O)(=O)c2ccc(C)cc2C)CC1)c1ccccc1 (centres undefined)	.	-4	1	5.2	1.8	?	.
O=C(O)c1cc(Nc2cc(Cl)c3nonc3c2[N+](=O)[O-])ccc1O	1.7	6	0	-3.9	3.9	58µM*	12
Cc1cnc(NC(=O)CSc2nnc(-c3cccs3)n2C)s1	-3.5	-3	-9	2.1	1.9	0%	-1
COc1ccc(CCNC(=O)COc2cc(=O)n(C)c3ccccc23)cc1OC	?	0	-6	-1.5	0.5	9%	-2
O=C(O)c1cccnc1SCc1cn2cc(Cl)ccc2n1	-1.3	2	-14	3.9	3.1	.	7
Cc1ccc2oc(-c3cc(NC(=O)c4ncn[nH]4)ccc3O)nc2c1	-3.5	-1	-3	-6.0	5.3	2%	34
O=C(CSc1nnc(-c2ccccc2O)o1)Oc1ccc(Br)cc1	2.3	-3	-2	5.2	-5.3	3%	-5
CCN(CC)c1ccc2cc(C#N)c(=O)oc2c1	115*	-4	-2	22	-11	.	-6
CCOC(=O)N1CCC(NC(=O)c2ccc3c(=O)n4c(nc3c2)CCCC4)CC1	-1.4	-14	-2	0.2	3.2	-5%	-10
SMILES	RanGTP-Impb inh	ALR H2O2 inh	B2AR ag	HNF4A DNA FP	LANA-H2A inh	Vif TR-FRET	Calb FLC
O=C(Nc1nnc(-c2ccccc2F)s1)C1CCN(S(=O)(=O)c2ccc(Cl)cc2)CC1	0.6	.	-12	1.3	.	.	1
NC(=O)C1=C[C@@H](c2ccc(C(F)(F)F)cc2)C[C@@H](OCCCCO)O1	0.4	-32	3	4.8	-2.6	11%	-15
CCN(CC)c1ncc(C#N)c(N)n1	5.2	-13	-3	-0.8	0.8	1%	-2
NC(=O)c1c(NC(NC(=O)c2ccco2)C(=O)c2ccc(Cl)cc2)sc2c1CCCC2 (centres undefined)	-4.5	-2	-8	0.1	-1.6	13%	-2
CCOC(=O)C1=C(C)NC2=C(C(=O)CC(c3cccs3)C2)C1c1cccs1 (centres undefined)	0.2	-4	7	0.6	-0.3	-8%	.
Cc1ccc(-n2c(=O)c3sccc3n(CC(=O)N3CCCC3)c2=O)cc1	5.2	1	1	5.8	1.9	?	-29
COCCCNC(=S)Nc1ccc(C)cc1	0.1	37	1	0.1	-0.1	6%	-4
Cn1cc(Br)c(C(=O)NNC(=O)c2ccc(Br)cc2)n1	.	.	4	-1.4	-1.9	30%	.
CN1C(=O)N(C)C2(c3ccccc3)Nn3c(s/c(=C/c4ccccc4F)c3=O)=NC12c1ccccc1 (centres undefined)	-1.7	.	.	.	-2.9	-2%	-3
CSc1nccc(-c2nn(-c3ccc(C)cc3)ccc2=O)n1	3.0	-3	-9	-1.1	-8.7	5%	1
COC(=O)C1=C(C)N=c2s/c(=C3\C(=O)Nc4ccccc43)c(=O)n2C1c1ccccc1 (centres undefined)	-3.3	.	.	.	.	2%	4
COC(=O)c1ccccc1NC(=S)NC(=O)CC(C)C	2.3	-2	-4	-1.3	-6.2	-1%	-4

Full records, looked up by structure.
NC(=O)c1c(NC(NC(=O)c2ccco2)C(=O)c2ccc(Cl)cc2)sc2c1CCCC2 (centres undefined) as listed: RanGTP-Impb inh = -4.5; ALR H2O2 inh = -2; B2AR ag = -8; HNF4A DNA FP = 0.1; LANA-H2A inh = -1.6; Vif TR-FRET = 13%; Calb FLC = -2
COC(=O)c1ccccc1NC(=S)NC(=O)CC(C)C as listed: RanGTP-Impb inh = 2.3; ALR H2O2 inh = -2; B2AR ag = -4; HNF4A DNA FP = -1.3; LANA-H2A inh = -6.2; Vif TR-FRET = -1%; Calb FLC = -4

A second format for some results above:
Results follow in this order: RanGTP-Impb inh, ALR H2O2 inh, B2AR ag, HNF4A DNA FP, LANA-H2A inh, Vif TR-FRET, Calb FLC
O=C(O)c1cccnc1SCc1cn2cc(Cl)ccc2n1
    -1.3, 2, -14, 3.9, 3.1, ., 7
Cc1ccc2oc(-c3cc(NC(=O)c4ncn[nH]4)ccc3O)nc2c1
    -3.5, -1, -3, -6.0, 5.3, 2%, 34
O=C(CSc1nnc(-c2ccccc2O)o1)Oc1ccc(Br)cc1
    2.3, -3, -2, 5.2, -5.3, 3%, -5
CCN(CC)c1ccc2cc(C#N)c(=O)oc2c1
    115*, -4, -2, 22, -11, ., -6
CCOC(=O)N1CCC(NC(=O)c2ccc3c(=O)n4c(nc3c2)CCCC4)CC1
    -1.4, -14, -2, 0.2, 3.2, -5%, -10
O=C(Nc1nnc(-c2ccccc2F)s1)C1CCN(S(=O)(=O)c2ccc(Cl)cc2)CC1
    0.6, ., -12, 1.3, ., ., 1
NC(=O)C1=C[C@@H](c2ccc(C(F)(F)F)cc2)C[C@@H](OCCCCO)O1
    0.4, -32, 3, 4.8, -2.6, 11%, -15
CCN(CC)c1ncc(C#N)c(N)n1
    5.2, -13, -3, -0.8, 0.8, 1%, -2
NC(=O)c1c(NC(NC(=O)c2ccco2)C(=O)c2ccc(Cl)cc2)sc2c1CCCC2 (centres undefined)
    -4.5, -2, -8, 0.1, -1.6, 13%, -2
CCOC(=O)C1=C(C)NC2=C(C(=O)CC(c3cccs3)C2)C1c1cccs1 (centres undefined)
    0.2, -4, 7, 0.6, -0.3, -8%, .
Cc1ccc(-n2c(=O)c3sccc3n(CC(=O)N3CCCC3)c2=O)cc1
    5.2, 1, 1, 5.8, 1.9, ?, -29
COCCCNC(=S)Nc1ccc(C)cc1
    0.1, 37, 1, 0.1, -0.1, 6%, -4
Cn1cc(Br)c(C(=O)NNC(=O)c2ccc(Br)cc2)n1
    ., ., 4, -1.4, -1.9, 30%, .
CN1C(=O)N(C)C2(c3ccccc3)Nn3c(s/c(=C/c4ccccc4F)c3=O)=NC12c1ccccc1 (centres undefined)
    -1.7, ., ., ., -2.9, -2%, -3
